# Source: PubChem
# Beta apoptosis: blocks beta cell apoptosis; protection from apoptosis, % (concentration not given with the values); INS-1E cytokine-induced death, ATP luminescence, 48 h; percent of positive-control rescue, neutral wells zero; 300,000 compounds, 0.8% hits;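 active means all replicates at 75% or more, or half of them and the mean; inconclusive means half reach 75% but not the mean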;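 further: 0% = cytokine-treated negative control wells and 100% = positive control rescue; higher means more ATP so stronger rescue from cytokine killing; wells of about 40 µL received 100 nL stock; the first replicate is given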
# FGF22 binding: binders of recombinant human FGF22 by thermal shift; calls only at 9.99 µM; Q9HCT0; 340,000 compounds, 1.5% hits; SYPRO orange fluorescence; percent of sucrose octasulfate shift, DMSO zero;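 active means melting point raised past a set limit in the mean and every replicate; inconclusive means no clear call; three in four hits are not shown here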
# Target sequence (Q9HCT0 whole entry, looked up): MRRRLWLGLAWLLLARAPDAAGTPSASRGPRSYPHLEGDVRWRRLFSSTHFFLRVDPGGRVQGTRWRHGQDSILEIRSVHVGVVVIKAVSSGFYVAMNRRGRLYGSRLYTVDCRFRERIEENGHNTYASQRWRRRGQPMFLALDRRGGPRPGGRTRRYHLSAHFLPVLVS
# AF4-AF9 inh: blocks AF4 peptide binding to human AF9 | P42568 | AlphaScreen, biotin-AF4 peptide binding to FLAG-AF9 | inhibition, % at 10 µM | 350,000 compounds, 0.47% hits;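 active means every replicate reaching a set inhibition limit, whatever the replicate mean, cut at about 25% in these data; inconclusive means mean inhibition reaches that limit but some replicates miss it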;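 further: 0% = plate neutral control median and 100% = total signal loss; the record names both 10 and 1 µM as test concentration; the first replicate is given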
# Target sequence (P42568 whole entry, looked up): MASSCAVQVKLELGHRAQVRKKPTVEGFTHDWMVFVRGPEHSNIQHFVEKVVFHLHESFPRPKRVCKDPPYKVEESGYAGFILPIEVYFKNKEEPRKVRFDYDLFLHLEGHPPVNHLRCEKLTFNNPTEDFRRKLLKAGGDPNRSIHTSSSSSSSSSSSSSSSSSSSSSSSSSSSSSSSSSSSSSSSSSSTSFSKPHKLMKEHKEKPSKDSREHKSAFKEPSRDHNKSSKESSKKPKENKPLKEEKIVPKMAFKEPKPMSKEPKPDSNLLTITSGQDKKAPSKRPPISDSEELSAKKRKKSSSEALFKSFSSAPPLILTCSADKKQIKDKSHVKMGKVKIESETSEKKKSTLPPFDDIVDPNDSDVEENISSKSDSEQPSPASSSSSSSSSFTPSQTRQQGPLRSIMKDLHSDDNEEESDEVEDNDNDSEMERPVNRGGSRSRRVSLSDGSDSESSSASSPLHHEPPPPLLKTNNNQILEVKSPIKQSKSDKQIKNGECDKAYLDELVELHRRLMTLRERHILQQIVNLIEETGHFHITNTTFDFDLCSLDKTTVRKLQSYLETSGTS
# Calb FLC: C. albicans growth modulation with fluconazole; growth inhibition, % (no concentration beside the values); AID 1979; 300,000 compounds, 0.57% hits; C. albicans CaCi-2 (fluconazole-resistant clinical isolate) + fluconazole, Alamar Blue growth, 48 h;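 active means most replicates above 75%; inconclusive means exactly half above 75%; inactive means most below 75%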;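 further: all wells also contain fluconazole at 8 µg/ml as a sub-toxic cotreatment; 0% = median of DMSO wells and 100% = median of geldanamycin control wells; wells of about 8 µL received 7.5 nL stock; the first replicate is given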
# Ecoli rRNA inh: inhibits bacterial ribosomal RNA function over humanized ribosomes; E. coli WT GFP vs humanized-ribosome RFP mutants, fluorescence, 24 h; hits give low values; DMSO median 0, no signal -100; GFP signal change (wild-type ribosome), % (test concentration not listed); 350,000 compounds, 1.6% hits; AID 720706;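 active means significant combined selectivity score with lowered wild-type GFP, culture density cut under 30%, mutant RFP and density less affected; inactive means any of these conditions unmet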; further: one replicate is shown; some compounds called inactive have numbers as strong as hits
# ALR inh: blocks human ALR sulfhydryl oxidase activity; P55789; purified ALR, DTT oxidation, H2O2 HRP-luminol luminescence; inhibition, % (test concentration not listed); 290,000 compounds, 3.8% hits; AID 485317;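 active means mean and each replicate at 75% or more; inconclusive means only one of the two met; inactive means neither met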;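 further: stock transfer was 7.5 nL into about 7.5 µL; 0% = neutral wells and 100% = wells with inactivated enzyme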
# Target sequence (P55789 whole entry, looked up): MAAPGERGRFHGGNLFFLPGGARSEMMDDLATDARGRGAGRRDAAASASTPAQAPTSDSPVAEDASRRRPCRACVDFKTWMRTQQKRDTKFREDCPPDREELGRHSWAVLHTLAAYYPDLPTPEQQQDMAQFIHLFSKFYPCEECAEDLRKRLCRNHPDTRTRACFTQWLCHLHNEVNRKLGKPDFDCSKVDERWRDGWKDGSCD
# RanGTP-Impb inh: inhibitors of RanGTP-importin-beta interaction, primary screen, biochemical, FRET, CFP-Ran, YFP-importin-beta, homogeneous; cell-free CFP-Ran/YFP-importin-beta FRET ratio; inhibition, % (no concentration beside the values); 300,000 compounds, 1.1% hits;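 active means most replicates above 15%; inconclusive means exactly half above 15%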;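 further: 0% = DMSO wells and 100% = Ran loaded with GDP instead of GTP; wells of about 40 µL received 100 nL stock; the first replicate is given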
# T cruzi repl: T. cruzi replication inhibition; T. cruzi beta-gal in NIH3T3, luminescence, 90 h; inhibition, % (test concentration not listed); 300,000 compounds, 1.4% hits;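 active means mean inhibition across valid replicates above about 55%, limit read from the data; inconclusive means mean below that limit but half or more replicates reach it; inactive means mean below it, under half of replicates reach it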;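 further: signal also drops with host cell toxicity which is not excluded here; 0% = plate median of DMSO wells and 100% = zero luminescence signal; higher percent means less beta-gal luminescence so fewer parasites; stock transfer was 50 nL into about 50 µL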
# Ecoli rRNA inh OD600: also measured in Ecoli rRNA inh; calls as there; OD600 change, %; measured here: OD600 growth;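 optical density of the mix in the first replicate; 0 = DMSO median and -100 = no signal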
# Ecoli rRNA inh RFP: further read-out of Ecoli rRNA inh, marked with its call; RFP signal change, %; measured here: RFP humanized mutant strains;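 first replicate; 0 = DMSO median and -100 = no signal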
# * marks the source's active call; other numbers are inactive results; i = inactive; ? = inconclusive; nt = not tested or not shown. A portion of the library. The share of hits here may be higher or lower than overall.
SMILES,Beta apoptosis,FGF22 binding,AF4-AF9 inh,Calb FLC,Ecoli rRNA inh,Ecoli rRNA inh OD600,Ecoli rRNA inh RFP,ALR inh,RanGTP-Impb inh,T cruzi repl
CC1(C)S[C@@H]2[C@H](N=CN3CCCCCC3)C(=O)N2[C@H]1C(=O)O,1,nt,nt,nt,nt,nt,nt,-29,5.6,4
O=C(c1ccc(F)cc1)C1CCN(C(=S)NCC2CCCO2)CC1 (stereo not given),2,i,-1.2,-4,6,5,-1.7,3,7.1,-2
NC1=NC2(CCC(c3ccccc3)CC2)n2c(nc3ccccc32)N1 (stereo not given),-11,nt,nt,19,nt,nt,nt,-8,-2.1,10
FC(F)(F)c1nnc2sc(-c3ccncc3)nn12,-7,nt,nt,2,nt,nt,nt,0,-0.1,-7
O=C(CSc1nnnn1C1CCCC1)N1CCCCC1,nt,i,-4.5,5,2,9,-0.7,nt,-2.6,-4
CC1(c2nnc(Cc3ccccc3)o2)CC(c2ccccc2)=NO1 (stereo not given),-1,i,-37,-7,-1,3,0.0,5,4.8,-2
Cc1onc(-c2ccccc2)c1C(=O)c1c[nH]c(C(=O)NCc2ccncc2)c1,nt,i,1.0,9,-6,-5,1.7,-7,2.2,-15
Cc1ccc(-n2nc3c(c2NC(=O)c2c(-c4ccccc4Cl)noc2C)CSC3)cc1,3,nt,nt,-3,nt,nt,nt,3,3.0,-9
NS(=O)(=O)c1ccc(CCNC(=S)NC(=O)c2ccccc2Br)cc1,3,i,-3.8,nt,3,7,-0.6,4,nt,nt
COc1cc(C2Nc3ccccc3NC3=C2C(=O)CC(c2ccc(OC)c(OC)c2)C3)ccc1O (stereo not given),-2,i,-1.6,7,-8,1,-1.3,?,4.5,0
O=C(Cn1cnc(S(=O)(=O)N2CCCC2)c1)Nc1cccc(F)c1,-4,i,0.8,-1,4,3,-0.7,-2,1.1,13
O=C(O)c1ccccc1NCc1cccnc1,nt,i,-1.3,18,20,12,0.4,7,6.8,0
O=C(C1CCN(CC2CCCCC2)CC1)N1CCCC1,-5,nt,nt,9,nt,nt,nt,-3,4.7,-21
O=C(CCC(=O)c1ccc(F)cc1)Nc1cccc(C(F)(F)F)c1,1,i,-4.3,-8,-4,4,-0.4,-8,-0.3,-11
COC(=O)C(CCCN1C(=O)c2ccccc2C1=O)(NC(C)=O)c1nnn(C)n1 (stereo not given),1,i,-0.5,-4,15,17,1.1,-2,-1.2,14
CCc1ccccc1NC(=O)C1CCCN(S(=O)(=O)c2c(C)noc2C)C1 (stereo not given),nt,nt,nt,-3,nt,nt,nt,-6,-1.9,0
CC(C)OCCCNC(=O)C1CCC(=O)N1C(C)C (stereo not given),1,nt,nt,0,nt,nt,nt,-7,-0.4,-8
CCCCOC(=O)c1ccc(NC(=O)C(=O)NCCN(CC)CC)cc1,0,i,-1.2,-1,-10,-11,1.9,-4,5.2,-4
CCCCCC(=O)N/N=C(\C)c1ccc(NC(=O)c2ccco2)cc1,3,nt,nt,?,nt,nt,nt,-11,4.1,4
CC1CN(S(=O)(=O)c2cccc(C(=O)NCCC3=CCCCC3)c2)CC(C)O1 (stereo not given),7,i,-2.8,-13,3,3,0.3,-5,0.5,-6
CCN(CC)S(=O)(=O)c1ccc(N2CCN(C)CC2)c(NC(=O)CSCC(=O)Nc2cccc(C)c2)c1,0,i,-11,-8,-1,8,-4.2,-4,0.2,38
COC(=O)c1cccc(N2C(=O)c3ccccc3S2(=O)=O)c1,-2,nt,nt,2,nt,nt,nt,nt,3.4,-7
Cc1cc(=O)oc2c3c(cc(OCC(=O)NCC4CCC(C(=O)O)CC4)c12)OC(C)(C)CC3 (stereo not given),-4,i,-0.5,-5,-4,-1,4.6,0,-1.1,6
CS(=O)(=O)N1CCC(C(=O)N2CCN(c3ccccc3F)CC2)CC1,-6,i,-2.3,-1,13,9,1.1,1,?,-26
COc1ccc(OCc2cc(=O)[nH]c3ccccc23)cc1,3,i,1.7,52,1,2,-1.5,-20,-0.2,-2
CNS(=O)(=O)c1cccc(C(=O)OCc2cc(=O)n3cc(Br)ccc3n2)c1,-4,nt,nt,3,nt,nt,nt,-2,3.6,19
Cc1cnc(C(=O)OCC(=O)Nc2ccc(C)c(S(=O)(=O)N3CCOCC3)c2)cn1,8,i,3.7,nt,3,2,0.7,2,nt,nt
CCOc1ccccc1N1CCN(C(=O)C2c3ccccc3Oc3ccccc32)CC1,10,nt,nt,-3,nt,nt,nt,-1,2.9,13
COc1cc(OC)c(C(=O)O/N=C(\N)c2ccccc2)cc1OC,2,i,0.8,10,-12,4,-6.4,-2,5.8,28
O=C(c1ccco1)N1CCN(C(=O)c2sccc2-c2ccccc2)CC1,-5,nt,nt,-5,nt,nt,nt,-6,?,-14
O=C(O)c1ccccc1NS(=O)(=O)c1ccc2c3c(cccc13)C(=O)N2,-1,nt,nt,0,nt,nt,nt,-17,-2.5,-9
CCOC(=O)C(C)Sc1nc(=O)n2ccccc2n1 (stereo not given),-4,i,0.6,0,19,26,2.7,-6,-2.5,-14
COCCn1c(SCC(=O)Nc2ccc(F)cc2F)nc2c([nH]c3ccccc32)c1=O,37,i,0.4,nt,3,4,-0.4,-6,nt,2
COc1ccccc1NC(=O)c1cc2ccccc2nc1C,-1,i,1.8,15,9,-2,2.2,-2,23*,-8
O=C(O)c1cc2nc(C3CC3)cc(C(F)(F)F)n2n1,-1,i,-4.4,-6,11,6,-5.7,-8,3.5,0
C1CCC(n2nnnc2CN2CCN(C3CCCC3)CC2)CC1,3,nt,nt,-3,nt,nt,nt,nt,-4.4,0
CCCc1nnc(SCC(=O)Nc2ccc(C(=O)OCC)cc2)o1,2,i,13,10,-3,-7,-1.4,99*,0.0,-31
CCn1c(=O)n(CC)c2cc(S(N)(=O)=O)ccc21,nt,i,-0.9,-7,11,9,-1.8,-10,3.7,-6
Cn1c(Oc2ccccc2NCc2cccc(Br)c2)cc(=O)n(C)c1=O,-5,nt,nt,12,nt,nt,nt,-8,-3.4,8
Cc1nc2cc(-c3ccccc3)[nH]n2c(=O)c1C,5,i,3.0,9,21,17,2.7,3,-2.2,-2
COc1cc(C(=O)N/N=C/c2ccccn2)cc(OC)c1OC,nt,i,-3.5,4,-11,6,14,-5,1.3,1
Cc1ccc(S(=O)(=O)C(c2ccccc2)c2c(C)noc2C)cc1 (stereo not given),-5,nt,nt,4,nt,nt,nt,-28,0.6,13
Cc1cc2c(=O)n(C)c(SCC(=O)Nc3ccccc3)nc2s1,5,i,-0.5,-2,12,18,-4.9,2,-2.8,2
O=C(CCN1C(=O)C2CCCCC2C1=O)Nc1nc(-c2ccccc2)cs1 (stereo not given),0,i,-1.5,1,7,13,-0.7,nt,?,5
O=C(N/N=C\c1ccc(Br)cc1)c1ccc(Cn2cccn2)o1,-3,i,5.5,-3,-3,1,-0.5,0,1.3,0
CCCCNC(=O)N1CCN(c2ccccc2OCC)CC1,0,i,-0.3,22,7,6,0.1,30,-0.3,-12
Cc1ccc[n+](-c2[nH]c(=O)sc2/C=N/NC(=O)c2ccccc2[O-])c1,0,i,3.8,2,5,13,7.4,9,0.2,-4
COc1cccc(C(=O)Nc2ccc3c(c2)C(=O)c2ccccc2C3=O)c1,25,i,-0.7,28,12,0,-0.5,-1,-2.9,9
Cc1cccc(C)c1NC(=S)N/N=C/c1ccc(OCCC(C)C)cc1,nt,nt,nt,-1,nt,nt,nt,3,-0.1,63*
COCCN(C(=O)COC(=O)C(c1ccccc1)c1ccccc1)c1c(N)n(Cc2ccccc2)c(=O)[nH]c1=O,-5,i,0.1,18,-9,-15,-0.1,0,0.8,5
COc1cc2nc(SCC(=O)NCc3ccco3)n(Cc3ccc(Cl)cc3)c(=O)c2cc1OC,-9,nt,nt,11,nt,nt,nt,0,2.9,-12
CCOC(=O)C1=C(C)N=C2SCCC(=O)N2[C@@H]1/C=C/c1ccccc1,-5,nt,nt,3,nt,nt,nt,-11,-0.9,5
Cc1cccc(Cl)c1NC(=S)NN,-4,i,1.0,-17,-1,4,7.2,6,-1.0,-19
CC12CCC(=O)N1C(C(=O)N1CCN(c3cccc(Cl)c3)CC1)CS2 (stereo not given),-1,i,-0.2,nt,0,0,0.0,4,nt,nt
CC(C)(CNC(=O)c1cccc(S(=O)(=O)NCc2ccccc2)c1)N1CCOCC1,1,i,-14,1,9,6,-0.1,nt,-4.4,-1
CCN(C[C@H]1N[C@@](CC)(C(=O)OC)[C@H]2C(=O)N(C)C(=O)[C@@H]12)C(=O)Nc1ccc(OC)cc1,-7,i,1.2,nt,6,14,2.2,nt,nt,nt
CCC(C)Sc1ccc(-c2nc3ccc(Cl)cn3c2NCc2ccccc2)cc1 (stereo not given),55,i,3.6,nt,-34,-30,19,1,nt,nt
O=C(OCC(=O)N(C1CCCCC1)C1CCCCC1)c1ccc(Cl)nc1,-1,i,-0.3,nt,7,9,0.6,nt,nt,nt
COCCn1c(C)cc(C(=O)COC(=O)/C=C/c2c(C)nn(C3CCS(=O)(=O)C3)c2Cl)c1C (stereo not given),nt,i,3.7,-3,-5,5,0.8,-6,1.5,-3
COc1ccc(NC(=O)/C(=C\c2cc(OC)c(OC)cc2[N+](=O)[O-])NC(=O)c2ccccc2)cc1,-1,nt,nt,2,nt,nt,nt,-9,-1.6,-3

# New compounds follow:
SMILES,Beta apoptosis,FGF22 binding,AF4-AF9 inh,Calb FLC,Ecoli rRNA inh,Ecoli rRNA inh OD600,Ecoli rRNA inh RFP,ALR inh,RanGTP-Impb inh,T cruzi repl
CCOC(=O)c1cnc(-n2nc(C)cc2C)nc1NNc1cc(C)nc(-c2ccccc2)n1,85*,i,0.4,11,4,11,-0.8,19,-2.9,55*
CSc1ccccc1NC(=O)CN(c1ccccc1)S(=O)(=O)N(C)C,2,nt,nt,2,nt,nt,nt,-8,4.0,-13
Cc1cc(NCc2cccnc2)nc(N)n1,-3,i,-1.2,3,4,14,-0.3,-3,1.6,1
O=C(COc1ccccc1Cl)Nc1cccnc1,-2,i,0.0,29,14,17,2.2,-9,0.9,-4
COc1ccccc1/C=C/C(=O)OCC(=O)Nc1ccc(Cl)cn1,1,i,0.2,-3,0,0,5.6,5,0.2,-7
COc1ccccc1C(=O)NCC(=O)OC(C)C(=O)N(C)C1CCCCC1 (stereo not given),-7,i,1.6,nt,14,13,-0.7,-15,nt,nt
Cn1cc(Br)c(C(=O)NNC(=O)c2cccc(Br)c2)n1,2,nt,nt,30,nt,nt,nt,nt,4.9,5
NC1=C([N+](=O)[O-])C(c2ccc3c(c2)OCO3)C2=C(CCCC2=O)O1 (stereo not given),22,i,-0.9,-3,2,6,-2.3,-8,1.0,-1
O=C(Nc1ccccc1)N1CCN(c2ccc(C(F)(F)F)cn2)CC1,14,nt,nt,-31,nt,nt,nt,-1,3.5,3
O=C(COC(=O)CC1c2ccccc2CCN1S(=O)(=O)c1ccccc1)Nc1ccccc1 (stereo not given),-6,i,-1.2,3,-7,-6,-4.8,-6,?,2
